Screens as filed in PubChem.
Cruzain Triton: cruzain (T. cruzi) inhibition with detergent. hit rate 0.43% among 200,000. P25779. purified cruzain, Z-FR-AMC fluorescence, 0.01% Triton. Potency, µM, for inactives: max response, negative = inhibition, actives largely listed as inhibitors;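 also: plate controls were neutral wells for no effect and buffer without enzyme for full effect; nearly all actives have a fitted effect of over 40% in size; top concentration of the series not given in the record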
Target sequence (P25779 123-467 limits assumed): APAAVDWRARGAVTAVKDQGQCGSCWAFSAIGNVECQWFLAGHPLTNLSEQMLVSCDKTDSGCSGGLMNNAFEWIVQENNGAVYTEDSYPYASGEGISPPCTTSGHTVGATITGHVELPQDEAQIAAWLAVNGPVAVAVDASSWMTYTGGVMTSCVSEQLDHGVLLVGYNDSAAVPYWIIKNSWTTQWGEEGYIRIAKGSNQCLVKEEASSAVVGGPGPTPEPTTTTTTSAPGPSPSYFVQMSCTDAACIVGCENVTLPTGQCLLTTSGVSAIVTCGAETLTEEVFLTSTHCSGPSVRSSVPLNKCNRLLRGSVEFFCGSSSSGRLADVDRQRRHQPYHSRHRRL
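Compounds were screened in titration against cruzain (1.5 nM) with 0.01% Triton X-100 to counter colloidal aggregation. Activity was the AMC fluorescence increase over 60 s after adding 2 uM Z-FR-AMC at pH 5.5.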
NS1 function inh: blocks influenza NS1 protein function; S. cerevisiae slowed by influenza A NS1, growth recovery by OD600; hit rate 0.4% among 270,000; AID 2326; Potency, µM (series often up to 46.1 µM), inactives show top-dose activity, positive = more growth; active means well fitted rising curve with a large enough effect; inconclusive means small, poorly fitted or top-dose-only effect; inactive means no such curve, though single readings can be large or run the other way; also: nearly all actives have a fitted effect of over 50% in size
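In this qHTS, NS1 from influenza A is expressed in budding yeast, where it slows growth. Cells are switched from glucose to 2% galactose medium (pH 6.0, -URA), treated with compound, and growth recovery is read at OD600.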
Cruzain noTriton: blocks cruzain activity in detergent-free assay. P25779. purified cruzain, Z-FR-AMC fluorescence, no detergent. Potency, µM, without a hit: max response, negative = inhibition, most hits filed as inhibitors. hit rate 2.3% among 200,000. AID 1476;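 also: plate controls were enzyme without inhibitor for no effect and buffer without enzyme for full effect; nearly all actives have a fitted effect of over 40% in size; top concentration of the series not given in the record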
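Purified cruzain at 1.5 nM, pre-incubated 15 min with compound at room temperature in 100 mM sodium acetate pH 5.5, 5 mM DTT, 0.00005% Triton X-100. Reaction started with 2 uM Z-FR-AMC; AMC fluorescence increase over 60 s gives rate.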
MARV entry inh: inhibitors of Marburg virus binding or cell entry; Marburg virus pseudotyped entry inhibition, cell reporter; control for the full effect not named in the record; about a third of the inactives were read at about 46 µM; Potency, µM (titrated, usually from 37.8 µM), inactives show at the top dose activity change, negative = inhibition, hits mostly inhibitors; hit rate 1.8% among 300,000; active = well fitted inhibition curve with a large enough effect; inconclusive = small, poorly fitted or top-dose-only effect, or effect the other way; inactive = flat fitted curve, though single readings scatter; tested in HEK293 cells; about a fifth of its hits are not listed in these tables; also: % is scaled to controls: 0 for no effect and ±100 for the full control effect; luciferase read-out
SARS PLP yeast: blocks SARS-CoV papain-like protease in a yeast assay; hit rate 0.19% among 330,000; S. cerevisiae expressing SARS-CoV PLpro, growth rescue; control for the full effect not named in the record; Potency, µM (top dose mostly 32.9 µM), without a hit: at the highest dose activity, positive = growth rescue; AID 485353; active means well fitted rising curve with a large enough effect; inconclusive means small, poorly fitted or top-dose-only effect; inactive means no such curve, though single readings can be large or run the other way; also: 0% is about no effect; nearly all actives have a fitted effect of over 55% in size; growth read by luminescence after 48 h
2A StopGo: FMDV 2A StopGo reporter, luciferase signal. human cells with a luciferase reporter of 2A StopGo recoding; control for the full effect not named in the record. Potency, µM (series often up to 57.9 µM), without a hit: at the top dose signal change, negative = less light. hit rate 1.2% among 410,000; active = well fitted falling curve with a large enough effect; inconclusive = small, poorly fitted or top-dose-only effect; inactive = no such curve, though single readings can be large or run the other way; tested in HEK293T cells; also: % is scaled to controls: 0 for no effect and ±100 for the full control effect; nearly all actives have a fitted effect of over 45% in size; luciferase light after 4 h
LASV entry inh: blocks Lassa virus binding to or entry into cells; Lassa virus pseudotype entry inhibition, cell reporter; control for the full effect not named in the record; Potency, µM (doses to about 37.9 µM), without a hit: top-dose activity change, negative = inhibition, usual class: inhibitors; hit rate 1.2% among 300,000; active means well fitted inhibition curve with a large enough effect; inconclusive means small, poorly fitted or top-dose-only effect, or effect the other way; inactive means flat fitted curve, though single readings scatter; tested in HEK293 cells; also: % is scaled to controls: 0 for no effect and ±100 for the full control effect; nearly all actives have a fitted effect of over 50% in size; luciferase read-out
RE007 growth inh: less growth of the S. pombe RE007 Vpr strain. Potency, µM (doses to about 92.2 µM), without a hit: top-dose activity change, negative = less growth. hit rate 0.21% among 360,000. S. pombe RE007 Vpr strain, BacTiter-Glo ATP luminescence, 24 h; control for the full effect not named in the record; active = well fitted falling curve with a large enough effect; inconclusive = small, poorly fitted or top-dose-only effect; inactive = no such curve, though single readings can be large or run the other way;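 also: % is scaled to controls: 0 for no effect and ±100 for the full control effect; nearly all actives have a fitted effect of over 50% in size; the assay follows cell death caused by Vpr and the record does not say whether a fall means rescue or toxicity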
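Fission yeast strain RE007, carrying one chromosomally integrated HIV-1 vpr copy, was seeded at OD 0.01 in PMG+AL medium with 23 nL pinned compound. After 24 h at 30 °C and 99% humidity, viability was read by BacTiter-Glo luminescence.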
* marks the source's active call; other numbers are inactive results; ? = inconclusive; · = no result given; & = joins results of further samples; [ ] = another dose, or the depositor's remark. Unless noted, calls follow the shape of the dose curve; as a rule, active = well fitted curve in the direction sought with a large enough effect; inconclusive = small, poorly fitted or top-dose-only effect, or another doubt; inactive = no such curve, though single readings can be large; an effect the other way counts as inactive or inconclusive. Potency is read from the fitted curve at half-maximal effect. Rows are unselected. About 4.5% of those tested had a hit in this group.

SMILES | Cruzain Triton | NS1 function inh | Cruzain noTriton | MARV entry inh | SARS PLP yeast | 2A StopGo | LASV entry inh | RE007 growth inh
CC(C)(Oc1ccc(Cl)cc1)C(=O)NCc1ccncc1 | 3.7% | -13% | 3% | -15% | 1% | -21% | -4% | -17%
CCC(C)N(C(=O)c1csnn1)C(C(=O)NCc1ccc(F)cc1)c1ccccc1 (configuration not stated) | · | 4% | · | -17%[46.1 µM] | 2% | 6% | -11%[46.1 µM] | 2%
CCOc1ccc(NC(=O)CC2Nc3cccc4cccc(c34)NC2=O)cc1 (configuration not stated) | -10% | · | -11% | ? | · | -20% | -7%[46.1 µM] | ·
CS(=O)(=O)N1CCCC(C(=O)c2cccc(Cl)c2)C1 (configuration not stated) | · | 1% | · | -18%[46.1 µM] | 0% | -17% | 5% | 4%
Cc1ccc(CNC(=O)C2CCCCN2S(=O)(=O)c2ccc(F)cc2)cc1 (configuration not stated) | -2.7% | · | -5% | · | · | -5% | -22%[46.1 µM] | ·
COC(=O)C1=NNC(C(=O)OC)C1c1ccccc1 (configuration not stated) | · | · | · | 26% | · | -23% | 4%[46.1 µM] | 0%
Cc1ccc(C(=O)Oc2coc(CSc3nnc(NC(=O)C4CC4)s3)cc2=O)cc1 | -6.5% | 9% | -1% | 7% | 16% | -10% | -1% | 18%
CC(=O)C1=C(O)C(=O)N(c2ccc(Br)cc2)C1c1ccccc1[N+](=O)[O-] (configuration not stated) | · | 14% | · | · | -7% | -5% | · | -13%
COc1ccc(C(c2nnnn2CC2CCCO2)N2CCC(C(N)=O)CC2)cc1 (configuration not stated) | -0.5% | 15% | 3% | ? | -17% | 5% | 0% | -7%
C/C(CC(=O)Nc1cc(Cl)ccc1Cl)=N\NC(=O)COc1cccc(C)c1 | · | -5% | · | -14% | 0% | 35%[activator] | 1% | -19%
Cc1ccc(C2=CC(c3ccccc3C)n3c(nc4ccccc43)N2)cc1 (configuration not stated) | -4.1% | · | ? | · | · | 2% | ? | ·
CCOC(=O)c1[nH]c(C)c(CCC(=O)NCc2ccc(OC(C)C)cc2)c1C | -0.6% | · | -8% | · | · | -15% | ? | ·
O=C(Cn1c(=O)oc2cc(S(=O)(=O)NCc3ccccc3)ccc21)NCc1ccc(Cl)cc1 | -4.6% | · | -2% | · | · | 10% | -2%[46.1 µM] | ·
CCOc1ccc(N2CC(NC(=O)c3cc4ccccc4o3)CC2=O)cc1 (configuration not stated) | -2.6% | · | 13% | · | · | -4% | -4%[46.1 µM] | ·
CCCCn1c(SCC(=O)Nc2nccs2)nc2ccccc2c1=O | 7.7% | 14% | 2% | -1% | 2% | -1% | 6% | 13%
CC1CCCCN1C(=O)COC(=O)Cc1c[nH]c2ccccc12 (configuration not stated) | · | · | · | -8% | -6% | 5% | ? | 0%
COc1ccc2nc(-n3c(O)c(C4=c5ccccc5=NC4=O)[nH]c3=S)sc2c1 | -5.3% | 18% | ? | 26% | -13% | -11% | 1% | -23%
COc1ccc(NC(=O)C2(c3ccc(NC(=O)c4ccc(OC)cc4)cc3)CCCC2)cc1 | -0.2% | 7% | 7.9µM* | 13% | 11% | -17% | -4% | ·
COC(=O)c1sccc1Oc1ccc(F)cc1[N+](=O)[O-] | -5.6% | 3% | -3% | 4% | -5% | -21% | -2% | -3%
O=C(CC1NCCc2ccccc21)Nc1ccccc1 (configuration not stated) | · | · | · | 1%[46.1 µM] | 2% | 58%[activator] | 11% | -1%
O=C1CC(NNC(=O)c2cccc(F)c2)C(=O)N1 (configuration not stated) | · | 2% | · | -3% | 1% | 13% | · | 2%
CCOC(=O)C1CCN(S(=O)(=O)c2ccc3c(ccn3C)c2)CC1 | · | -9% | · | · | -7% | -21% | · | -5%
CS(=O)(=O)c1cnc(-c2ccccc2)nc1Oc1ccc(Cl)cc1 | -1.9% | 12% | -11% | -10% | 0% | -1% | 14% | 9%
Cc1ccc(CNc2ccc(O)cc2)cc1 | -8.4% | -13% | -8% | ? | -14% | 20% | ? | -8%

By substructure: those above with an aryl thioether with sulfur outside any ring (two)
SMILES | Cruzain Triton | NS1 function inh | Cruzain noTriton | MARV entry inh | SARS PLP yeast | 2A StopGo | LASV entry inh | RE007 growth inh
Cc1ccc(C(=O)Oc2coc(CSc3nnc(NC(=O)C4CC4)s3)cc2=O)cc1 | -6.5% | 9% | -1% | 7% | 16% | -10% | -1% | 18%
CCCCn1c(SCC(=O)Nc2nccs2)nc2ccccc2c1=O | 7.7% | 14% | 2% | -1% | 2% | -1% | 6% | 13%

Profiles from above. Order of screens: Cruzain Triton	NS1 function inh	Cruzain noTriton	MARV entry inh	SARS PLP yeast	2A StopGo	LASV entry inh	RE007 growth inh
CCOc1ccc(N2CC(NC(=O)c3cc4ccccc4o3)CC2=O)cc1 (configuration not stated) as listed: -2.6%	·	13%	·	·	-4%	-4%[46.1 µM]	·
CS(=O)(=O)c1cnc(-c2ccccc2)nc1Oc1ccc(Cl)cc1 as listed: -1.9%	12%	-11%	-10%	0%	-1%	14%	9%

Further results
SMILES | Cruzain Triton | NS1 function inh | Cruzain noTriton | MARV entry inh | SARS PLP yeast | 2A StopGo | LASV entry inh | RE007 growth inh
CCN(CC(=O)Nc1ccc2c(c1)OCCO2)c1ccc(S(=O)(=O)N2CCOCC2)cn1 | -13% | -8% | -13% | -16%&-16% | 4% | -13% | 3% | 0%
CN1CCN(c2ccc([N+](=O)[O-])cc2NC(=O)c2cccs2)CC1 | · | 6% | · | -2% | 11% | -5% | 7% | 2%
CCc1cccc(NC(=O)CN(c2ccc(C)cc2)S(=O)(=O)c2c(C)noc2C)c1 | · | 6% | · | · | -12% | 0% | · | 0%
CCC(=O)NC(=S)Nc1ccc(NC(=O)c2cccc([N+](=O)[O-])c2C)cc1 | -5.5% | 2% | 0% | 9% | ? | -10% | 11% | 5%
OCC1(CCOc2ccccc2)CCN(Cc2ccncc2)CC1 | · | 19% | · | · | 7% | -5% | · | 5%
Cn1ncc(Br)c1C(=O)NCc1cccs1 | -4.5% | 3% | 11% | 21% | -1% | -25% | ? | -1%
Cc1cccc(N(C(=O)Cc2cccs2)C(C(=O)NC2CCCC2)c2ccsc2)c1 (configuration not stated) | 6.3% | 3% | ? | -8% | -12% | 24% | -22% | -3%
COc1ccc(N2C(=NC(=O)C(C)Oc3ccccc3)SC3CS(=O)(=O)CC32)cc1 (configuration not stated) | · | 0% | · | -10%[46.1 µM] | 3% | -2% | 3%[46.1 µM] | 6%
CC(=O)/C(=N/Nc1ccccc1Cl)Sc1nnc(C(O)c2ccccc2)n1-c1ccccc1 (configuration not stated) | -9.2% | 3% | 3% | 3% | 4% | 9% | 7% | -19%
O=C(Nc1cccc(Cl)c1)C1CCN(c2nc3ccccc3nc2C(F)(F)F)CC1 | -4.1% | · | ? | · | · | ? | 20%[46.1 µM] | ·
COc1ccc(C(CC(=O)O)NC(=O)c2cccs2)cc1 (configuration not stated) | 11% | 3% | 4% | -1% | 9% | 5% | -9% | 1%
CCOC(=O)c1cc(C(=O)c2cc(F)ccc2O)coc1=N | -3.0% | -10% | -1% | 5% | 2% | 1% | 17% | 3%

Just RE007 growth inh, for some of the entries so far:
smiles | RE007 growth inh
COc1ccc(C(CC(=O)O)NC(=O)c2cccs2)cc1 (configuration not stated) | 1%
CN1CCN(c2ccc([N+](=O)[O-])cc2NC(=O)c2cccs2)CC1 | 2%

Further records follow.
SMILES | Cruzain Triton | NS1 function inh | Cruzain noTriton | MARV entry inh | SARS PLP yeast | 2A StopGo | LASV entry inh | RE007 growth inh
CCc1cccc(NC(=O)C(CC(C)C)NS(=O)(=O)c2ccc3c(c2)oc(=O)n3C)c1 (configuration not stated) | 0.3% | · | -21% | -9%[46.1 µM] | · | 38%[activator] | 1%[46.1 µM] | ·
COc1ccc(/C=C2/C(=O)N(c3cccc(F)c3)N=C2C)c(OC)c1 | · | 8% | · | · | -9% | -15% | · | 11%
C/C(=N\Nc1nc(Nc2ccccc2)nc(N2CCOCC2)n1)c1cccs1 | · | -9% | · | · | -2% | -23% | · | -1%
CCC1CCCCN1C(=O)c1ccc(OC2CCN(C(=O)CCOC)CC2)cc1 (configuration not stated) | · | -7% | · | 1%[46.1 µM] | 0% | 14% | 6%[46.1 µM] | -5%
CN(C)/C=C/C(=O)c1ccc(-c2ccc(Cl)cc2Cl)o1 | · | 5% | · | 5%[46.1 µM] | -1% | 49%[activator] | ? | 16%
CCCCN(C(=O)NCCCCCCNC(=O)N(CCCC)C1CCS(=O)(=O)C1)C1CCS(=O)(=O)C1 (configuration not stated) | · | -3% | · | · | 0% | 4% | · | -8%
CCOC(=O)Cn1c(=O)oc2cc(S(=O)(=O)NCCCc3ccccc3)ccc21 | -4.9% | -10% | -6% | · | 9% | 4% | · | 7%
Cc1ccnc(NS(=O)(=O)c2cccs2)c1 | -2.9% | 7% | -5% | -2% | 3% | · | 0% | -12%
COc1ccc2[nH]c(CN3CCN(CC=C(C)C)C(CCO)C3)c(C)c2c1 (configuration not stated) | · | 11% | · | 12% | 6% | -24% | -2% | 2%
O=C1CC(N2CCN(c3ccc(O)cc3)CC2)C(=O)N1c1ccc2c(c1)OCO2 (configuration not stated) | · | 3% | · | 6%[46.1 µM] | -5% | -2% | 0%[46.1 µM] | -18%
O=S(=O)(O)c1ccc(N=NNc2ccc(Br)cc2)cc1 | · | 3% | · | 7% | -1% | 18% | ? | 8%
Cc1ccc(-c2nc3cc(C(C)C)ccc3o2)cc1NC(=O)c1cccs1 | -1.0% | · | 2% | -14%[46.1 µM] | · | 42%[activator] | 12%[46.1 µM] | ·
O=C(C1CCN(C2CCN(CC3CC=CCC3)CC2)CC1)N1CCOCC1 (configuration not stated) | · | -2% | · | · | 1% | -10% | · | 4%
COc1cccc(CNC(=O)N2CCN(c3ccccc3)CC2)c1 | · | -3% | · | 1%[46.1 µM] | 0% | 13% | 5% | 5%
